# miR-21 FLuc: raises the signal of a miR-21 reporter; HeLa miR-21 FLuc reporter, luciferase, 48 h; Potency, µM (doses to about 38.3 µM), without a hit: at the top dose reporter change, positive = more light; 340,000 tested, under 10 active; AID 2288; active = well fitted rising curve with a large enough effect; inconclusive = small, poorly fitted or top-dose-only effect; inactive = no such curve, though single readings can be large or run the other way;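 note: % of control where 0% means no effect; miR-21 action dims this reporter so a rising signal means less miR-21 action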
#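 HeLa miR-21-FLuc reporter line, endogenous miR-21; 2000 cells/well in DMEM/10% FBS; compound titration up to ~40uM final, 48 h, 37 degree Celsius; luciferase detection reagent, 15 min lysis, CCD luminescence.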
# GLA inh pH 4.5: blocks human alpha-galactosidase A at pH 4.5; AID 1467; purified enzyme, 4-MU-alpha-Gal fluorescence, pH 4.5; P06280; activity change, negative = inhibition, % at 105 µM; 230,000 tested, under 10 active; inconclusive = small, poorly fitted or top-dose-only inhibition, or a rising curve; inactive = flat fitted curve, though single readings scatter; no compound was filed as active;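 note: 0% = full activity with enzyme and -100% = basal without enzyme; dose as in the result columns while the protocol names 77 µM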
# Target sequence (P06280 whole entry, looked up): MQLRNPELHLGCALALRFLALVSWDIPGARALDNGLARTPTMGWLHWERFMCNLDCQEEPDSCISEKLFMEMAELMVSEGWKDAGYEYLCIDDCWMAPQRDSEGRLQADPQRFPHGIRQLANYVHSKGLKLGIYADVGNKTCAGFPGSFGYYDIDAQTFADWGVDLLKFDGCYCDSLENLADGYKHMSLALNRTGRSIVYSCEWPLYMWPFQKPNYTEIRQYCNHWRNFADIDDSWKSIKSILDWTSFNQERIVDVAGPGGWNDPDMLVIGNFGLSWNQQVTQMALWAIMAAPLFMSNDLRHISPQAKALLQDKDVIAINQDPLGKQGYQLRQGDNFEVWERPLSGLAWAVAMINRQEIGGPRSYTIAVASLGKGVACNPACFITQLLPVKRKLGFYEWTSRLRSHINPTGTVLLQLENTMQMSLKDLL
# Rango dissoc inh: inhibition of RanGTP-driven Rango-importin beta dissociation | Biochemical FRET Rango-importin beta, RanGTP-induced dissociation | Potency, µM (titrated, usually from 46.1 µM), without a hit: top-dose activity change, negative = inhibition | 0.071% of 340,000 active | AID 540253; active means falling FRET ratio curve, often poorly fitted, with flat reads before Ran was added; inconclusive means other falling curves, or compound fluorescence or quenching; inactive means flat or rising ratio curve;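 note: potency is the fitted concentration of half-maximal effect; % of control where 0% means no effect; nearly all actives have a fitted effect of over 45% in size; -100% = wells without RanGTP and RCC1; the record marks most hits as doubtful in a second field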
#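 Compounds sat 5 min at room temperature with 0.1 uM Rango biosensor plus 0.25 uM importin beta, then FRET pre-read. RanGTP-RCC1 (0.6 uM Ran, 2mM GTP, 0.2 uM RCC1) added for 45 min, and the CFP/YFP post-read measured blocked complex dissociation.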
# Rango complex inh: inhibitors of Rango-importin beta complex formation | Q14974 | Rango CFP/YFP FRET sensor + importin beta, 45 min | Potency, µM (titrated, usually from 92.2 µM), without a hit: top-dose inhibition of complex formation | 0.031% of 340,000 active; active = rising FRET ratio curve, often small or poorly fitted; inconclusive = mostly compound fluorescence or quenching in the first reads; inactive = flat curves in all reads;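 note: potency is the fitted concentration of half-maximal effect; 0% = DMSO wells and 100% = buffer wells lacking importin beta; nearly all actives have a fitted effect of over 15% in size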
#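 FRET biosensor (snurportin 1 IBB flanked by EYFP and cerulean), 50 nM, with compound 5 min, then 0.125 microM importin beta in PBS, 1 mM DTT, 0.02% Tween-20, 0.1% BSA. CFP/YFP ratio read after 45 min at room temperature; pre-read flags interference.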
# Numbers without * were called inactive; u = inconclusive; x = no result given. These rows are one share of the data; the hit share may differ from the screen's.
No.	Rango dissoc inh	GLA inh pH 4.5	miR-21 FLuc	Rango complex inh	structure
1	-22%	x	x	0.3%	COC(=O)c1ccc2c(=O)[nH]c(COC(=O)CCC(=O)c3ccc(Cl)cc3)nc2c1
2	5%	x	7%	-0.7%	CCN(CC(=O)Nc1cc(Cl)ccc1C)C(=O)CCS(=O)(=O)c1ccc(Cl)cc1
3	0%	x	x	0.4%	Cc1nnc(SCC(=O)N2CCN(c3ccccc3)CC2)n1C1CC1
4	18%	-4	-3%	-2.1%	CCN(CC(=O)Nc1cccc(S(=O)(=O)N2CCCC2)c1)CC(=O)Nc1ccccc1OC
5	u	-11	0%	u	O=C(Nc1nc(-c2ccccc2)c(C(=O)c2ccccc2)s1)c1ccc(S(=O)(=O)N2CCCCC2)cc1
6	-12%	-8	20%	-4.4%	Cc1ccc(/C=N/Nc2ccnc3cc(Cl)ccc23)c(C)c1
7	8%	x	9%	-2.4%	Cc1ccc(N2CC(C(=O)N3CCC(C(=O)Nc4nnc(C(C)(C)C)s4)CC3)CC2=O)cc1 (centres undefined)
8	-18%	x	x	-2.4%	Cc1c(Cl)ccc2sc(N3CCN(C(=O)C4=COCCO4)CC3)nc12

# Complete entries as entered above. Order of values: Rango dissoc inh	GLA inh pH 4.5	miR-21 FLuc	Rango complex inh
# CCN(CC(=O)Nc1cccc(S(=O)(=O)N2CCCC2)c1)CC(=O)Nc1ccccc1OC in the list: 18%	-4	-3%	-2.1%
# Cc1c(Cl)ccc2sc(N3CCN(C(=O)C4=COCCO4)CC3)nc12 in the list: -18%	x	x	-2.4%
# Cc1nnc(SCC(=O)N2CCN(c3ccccc3)CC2)n1C1CC1 in the list: 0%	x	x	0.4%
# CCN(CC(=O)Nc1cc(Cl)ccc1C)C(=O)CCS(=O)(=O)c1ccc(Cl)cc1 in the list: 5%	x	7%	-0.7%

# The listing picks up; the 4 compounds before the break are reprinted first.
No.	Rango dissoc inh	GLA inh pH 4.5	miR-21 FLuc	Rango complex inh	structure
5	u	-11	0%	u	O=C(Nc1nc(-c2ccccc2)c(C(=O)c2ccccc2)s1)c1ccc(S(=O)(=O)N2CCCCC2)cc1
6	-12%	-8	20%	-4.4%	Cc1ccc(/C=N/Nc2ccnc3cc(Cl)ccc23)c(C)c1
7	8%	x	9%	-2.4%	Cc1ccc(N2CC(C(=O)N3CCC(C(=O)Nc4nnc(C(C)(C)C)s4)CC3)CC2=O)cc1 (centres undefined)
8	-18%	x	x	-2.4%	Cc1c(Cl)ccc2sc(N3CCN(C(=O)C4=COCCO4)CC3)nc12
9	11%	8	-14%	-0.2%	CCn1ncc(C2=NOC(C(=O)Nc3ccccc3C(=O)OC)C2)c1C (centres undefined)
10	1%	-1	-6%	-2.0%	CCN(C(=O)CN1CCN(S(=O)(=O)c2cc(Cl)ccc2Cl)CC1)c1c(N)n(Cc2ccccc2)c(=O)[nH]c1=O
11	-7%	-1	-48%	1.7%	COc1ccc2cc(C3OCCO3)c(Cl)nc2c1
12	1%	x	-1%	2.6%	COCCCn1c(SCC(=O)NC2CCCCC2)nnc1-c1ccco1
13	1%	-11	-73%	-0.8%	COc1ccc(Nc2nc(-c3cccs3)cs2)c(OC)c1
14	-8%	x	u	-2.5%	CCCc1ccc(C(C)NC(=S)NCc2ccc(F)cc2)cc1 (centres undefined)
15	7%	x	0%	2.7%	CC(C)(C)NC(=O)CN(CC1CCCO1)C(=O)CNS(=O)(=O)c1ccc(F)cc1 (centres undefined)
16	-11%	x	x	3.8%	Cc1ccsc1C(=O)OC(C)C(=O)NC1CCCCC1C (centres undefined)
17	-13%	x	-1%	1.4%	O=C(O)C1(c2ccccc2)CCN(S(=O)(=O)c2cccc(Cl)c2)CC1
18	22%	-3	8%	-3.2%	O=C1CCCC2=C1C(c1ccccn1)Nc1ccc(C(=O)c3ccccc3)cc1N2 (centres undefined)
19	-9%	-7	-2%	2.6%	Cc1ccnc(NS(=O)(=O)c2cc([N+](=O)[O-])ccc2C)c1
20	0%	-2	-2%	2.5%	O=c1c2ccccc2nc(SCc2cc(F)ccc2F)n1C1CCCC1
21	-6%	x	0%	12%	Cc1ccc(-c2nnc(Nc3ccc(O)cc3)c3ccccc23)cc1S(=O)(=O)NCCO
22	-15%	0	2%	0.6%	C=CCn1c(-c2cc(Cl)ccc2OC)n[nH]c1=S
23	-6%	-27	-3%	5.6%	CCCCC(NS(=O)(=O)c1ccc(OC)cc1)C(=O)O (centres undefined)
24	-1%	x	-1%	0.1%	Cc1ccc(-c2n[nH]c(=S)n2/N=C/c2ccc(C(=O)O)cc2)cc1
25	0%	x	x	-3.0%	Cc1c(C(=O)NCc2ccco2)oc2c(F)cccc12
26	7%	9	1%	-2.5%	COc1ccc(S(=O)(=O)Nc2ccccc2N2CCOCC2)cc1[N+](=O)[O-]
27	11%	2	-16%	2.0%	CC1CCc2c(sc3nc(CN4CCOCC4)nc(NS(=O)(=O)c4cccc([N+](=O)[O-])c4)c23)C1 (centres undefined)
28	17%	x	x	0.1%	CC(=O)c1c(C)[nH]c(C(=O)COC(=O)c2cccnc2Cl)c1C
29	0%	-12	0%	0.0%	CN(CC(=O)NC(=O)NCc1ccco1)Cc1nc2ccccc2c(=O)[nH]1
30	-7%	3	u	2.3%	COc1cc(/C=C/C(=O)c2ccc(NS(=O)(=O)c3ccc(C)cc3)cc2)ccc1OC(F)F
31	-3%	-9	0%	4.9%	O=C(COC(=O)COc1ccc(Br)cc1)NCCC1=CCCCC1
32	-4%	7	7%	-1.0%	CC(=O)Nc1nonc1-c1ccccc1
33	-4%	-2	-2%	0.0%	CC(=O)NCCNC(=O)c1ccc(-n2c(C)ccc2C)cc1
34	-17%	-14	28%	-2.5%	CCOC(=O)CSC1=C(C#N)C(c2ccco2)C(C(=O)OCc2ccccc2)=C(C)N1 (centres undefined)
35	0%	-10	-35%	0.5%	Cc1cc(NC(=O)c2cccs2)no1
36	u	x	-9%	u	O=C(N/N=C/c1cc(Br)c(O)c(Br)c1)c1cc2c(ccc3ccccc32)o1
37	-2%	-2	-28%	-0.4%	COc1ccc(N/N=C(/N=Nc2nc(C)cc(=O)[nH]2)c2ccccc2)cc1
38	9%	12	-17%	0.2%	CCOc1ccc(-c2nnn(CC(=O)NCc3cccs3)n2)cc1
39	-3%	0	-14%	-5.7%	O=C(NCCc1csc(-c2ccccc2)n1)c1ccco1
40	13%	7	u	2.1%	CCn1c(-c2ccccc2)c(C(=O)CCl)c2ccccc21
41	-1%	-10	0%	0.3%	COc1cccc(-n2c(CN3CCN(c4cccc(C)c4)C(C)C3)nc3ccc([N+](=O)[O-])cc3c2=O)c1 (centres undefined)
42	2%	3	11%	0.1%	COc1ccc(N2C(=O)N(Cc3ccc(C)cc3)c3ccccc3S2(=O)=O)cc1
43	2%	9	-1%	0.3%	Cc1ccc(N2C(=O)C3C(C2=O)N2CCCN2C3c2ccccc2)cc1C (centres undefined)
44	15%	-7	20%	0.5%	CCN(CC)S(=O)(=O)c1ccc(NC(=O)c2ccc(N(C)S(C)(=O)=O)cc2)cc1
45	0%	2	-5%	-2.0%	CCCCCCNC(=O)CC(NS(=O)(=O)c1ccc(NC(C)=O)cc1)C(C)C (centres undefined)
46	1%	x	-1%	1.4%	CCc1ccc(S(=O)(=O)N2CCN(c3ncccn3)CC2)cc1
47	9%	x	-4%	0.5%	Cc1nc2scc(C)n2c(=O)c1S(=O)(=O)N1CCN(c2ccccn2)CC1
48	21%	-5	-13%	-2.8%	O=S(=O)(c1ccc(OCc2nc3ccccc3s2)c(Cl)c1)N1CCOCC1
49	-9%	-2	-5%	0.7%	Cc1nc(-c2ccc(S(=O)(=O)NCc3ccccn3)s2)cs1
50	-3%	0	-2%	-2.7%	N/C(CCN1CCCCC1)=N/O
51	5%	2	-4%	-1.0%	COc1cc(C(=O)OC(C)C(=O)NCC2CCCCC2)cc(NC(=O)c2ccco2)c1OC (centres undefined)
52	1%	-7	-4%	-1.6%	Cc1cc(C(=O)NCC(=O)OCC(=O)N(C)C2CCCCC2)ccc1[N+](=O)[O-]
53	-28%	3	-19%	u	COc1ccc(-c2c(C)nc(N)nc2-c2ccc(OCc3ccc(C)cc3)cc2O)cc1OC
54	10%	3	-22%	8.1%	COc1nccnc1NS(=O)(=O)c1ccc(NC(=S)NC(=O)c2ccccc2)cc1
55	-18%	4	25%	u	COc1ccc(/C=C/C(=O)c2ccc3c4c(cccc24)CC3)cc1OC
56	-1%	x	x	-0.9%	COC(=O)C(Cc1c[nH]c2ccccc12)NC(=O)c1cccc(S(=O)(=O)N2CCCCC2)c1 (centres undefined)
57	0%	5	7%	-0.5%	CC(C)Oc1ccc(CCc2nnc(SC(C)C(=O)O)n2-c2ccccc2)cc1 (centres undefined)
58	11%	x	-2%	-6.6%	Cc1ccc(C2=NS(=O)(=O)N(C)C(C(=O)N(C)C3CCCCC3)=C2)cc1
59	4%	5	-1%	3.3%	O=C(O)CC1S/C(=N/N=C2CCCCC2)N(c2ccccc2)C1=O (centres undefined)
60	-13%	-8	-4%	-3.8%	CCOC(=O)N1CCN(c2cc3nccnc3cc2F)CC1
61	7%	x	x	7.0%	CCOc1ccc(NC(=O)COC(=O)C2CC2C)cc1 (centres undefined)
62	1%	x	-4%	-4.7%	COc1ccc(S(=O)(=O)N(C)CC(=O)NCCCn2ccnc2)cc1Cl
63	-5%	-4	0%	2.5%	Cc1ccc(C(=O)CC2(O)C(=O)N(Cc3ccccc3)c3ccccc32)o1 (centres undefined)
64	-10%	x	-5%	0.2%	CC1(C(=O)N2CCOCC2)CCCCC1

# Next part
No.	Rango dissoc inh	GLA inh pH 4.5	miR-21 FLuc	Rango complex inh	structure
65	1%	-4	13%	-0.4%	CC(C)OC(=O)CSc1nc2c(c(C3CC=CCC3)c1C#N)CCC2 (centres undefined)
66	-7%	x	-2%	1.6%	COc1ccc(Cl)cc1S(=O)(=O)N(C)CC(=O)NCCCn1ccnc1
67	4%	x	x	-5.2%	COc1cccc(/C=N/NC(=O)C(=O)N2CCCC2)c1
68	11%	x	x	-1.9%	O=C(COC(=O)COc1ccccc1)NC1CCS(=O)(=O)C1 (centres undefined)
69	2%	4	-12%	-1.4%	CCC(=O)Nc1ccc(C(=O)n2nc(C)cc2C)cc1
70	-4%	-3	7%	-0.2%	CCOC(=O)c1c(NC(=O)C2C3C=CC(C3)C2(C)C(=O)O)sc2c1CCCC2 (centres undefined)
71	-5%	1	2%	-0.1%	Cc1cccc(OCc2nnc(SCC(=O)Nc3nccs3)o2)c1
72	16%	x	-1%	5.6%	CC(C)CN(c1ccccc1)S(=O)(=O)c1nnc(NC(=O)C(C)C)s1

# The last two records of the part above are carried over, then new ones follow.
No.	Rango dissoc inh	GLA inh pH 4.5	miR-21 FLuc	Rango complex inh	structure
71	-5%	1	2%	-0.1%	Cc1cccc(OCc2nnc(SCC(=O)Nc3nccs3)o2)c1
72	16%	x	-1%	5.6%	CC(C)CN(c1ccccc1)S(=O)(=O)c1nnc(NC(=O)C(C)C)s1
73	24%	-5	-8%	-1.0%	CCOC(=O)Cn1c(C)[n+](CC(=O)c2ccccc2)c2ccccc21
74	-8%	x	-3%	-2.3%	COc1ccc(-c2cc(C(=O)NCCN3CCOCC3)c3cc(C(C)C)ccc3n2)cc1
75	7%	x	-7%	0.6%	Cc1csc2nc(SCC(=O)N3CCN(c4ccccc4)CC3)[nH]c(=O)c12
76	21%	4	-1%	4.1%	Cc1ccc(OCC(=O)Nc2ccc(N3CCN(S(C)(=O)=O)CC3)cc2)cc1C
77	7%	3	-1%	0.0%	NC(=O)C1CCN(C(=O)COc2cccc3cccnc23)CC1
78	-7%	x	-2%	-2.6%	COc1ccc(C(=O)NCc2cccnc2)cc1
79	-8%	-8	3%	-3.1%	CN(C)c1cccc(C(=O)N/C=C/n2cnc3cc(C(F)(F)F)ccc32)c1
80	21%	-5	-4%	-4.3%	O=C(/C=C/c1ccccc1)NNC(=O)c1cccnc1
81	12%	2	-2%	-1.9%	O=C(Cc1ccccc1)NNC(=S)NC(=O)c1cccs1
82	-6%	-1	0%	-2.3%	Cc1cc(C)nc(NC(=O)c2ccc(Cl)cc2[N+](=O)[O-])c1
83	27%	-1	-10%	-8.5%	COCCCNC(=O)CCCOc1ccccc1
84	-8%	x	x	-3.7%	CCOC(=O)C[C@H]1c2ccccc2S(=O)(=O)N1Cc1ccc(Cl)cc1

# Bioassay records as filed in PubChem BioAssay.
